# HIV Env fusion – inhibitors of HIV-1 Env-driven cell-cell fusion, primary screen, HeLa-JRFL effector, CEM21 target cells, luciferase; 1.1% of 360,000 active; inhibition, % at 12.3 µM;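 active = mean replicate inhibition score of at least 50 and every replicate individually at or above 50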;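 also: 0% = plate neutral controls and 100% = maraviroc near 300 nM; one replicate is shown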
# Yeast UUG start – modulators of yeast start codon fidelity, primary screen, whole organism, S. cerevisiae, single point, plate reader | AID 602363, 2012 | S. cerevisiae UUG-firefly luciferase reporter, luminescence/redox ratio | 0.13% of 350,000 active | activity score, % at 18.7 µM;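 active = replicate mean at a twofold rise or more, about +100% in these data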;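 also: firefly luciferase made from a UUG start codon reports start codon fidelity; reporter light over untreated wells divided by growth signal over untreated wells; some hits fall short of that in this replicate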
# CSC inhib – cancer stem cell viability inhibitors, primary screen, luminescence. cancer stem cell-like cells viability. inhibition, % at 7.5 µM. 1.1% of 300,000 active. AID 2717, 2010;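 active = mean at 75% or more and at least half the replicates too; tested in HMLE shEcad cells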;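 also: 0% = median of negative and 100% = median of positive control wells; the first replicate is given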
# MT1-MMP act inh – blockers of MT1-MMP proenzyme processing, primary screen, HT1080 RFP-PRO-GFP cells, GFP/RFP fluorescence. Matrix metalloproteinase-14 (Homo sapiens), P50281. AID 651647, 2012. GFP/RFP ratio change, % at 20 µM. 0.061% of 360,000 active. GFP/RFP ratio fluorescence, overnight; percent of plate control window, DMSO zero;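 active = GFP/RFP ratio change of at least 30% with cell ATP level not reduced by more than half and red fluorescence within 50% of control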; also: strong numbers were not always called active
#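 Material: RFP-PRO-GFP reporter HT1080 cells. Dosing: single-point 20 µM compound, 1% DMSO. Controls: DMSO and RFP-L50D-GFP cell wells. Timing: cells overnight before dosing, compound overnight, 37 °C, 5% CO2. Measure: GFP/RFP fluorescence ratio.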
# MT1-MMP act inh RFP – further read-out of MT1-MMP act inh, marked with its call; RFP signal change, %; measured here: RFP expression control read;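 0 = vehicle wells; hits needed this value within 50% of zero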
# The depositor's hits bear a star; nt = no result given; & = joins results of further samples; [ ] = another dose, or the depositor's remark. A portion of the library; rates above refer to the full screens.
# Sample of the layout, four compounds:
1. CC[C@H]1C=C(C(=O)N[C@@]2(C(=O)O)C[C@H]2CC)[C@H]2CCC(=O)[C@H]2C1
2. COC(=O)[C@H]1[C@H](CO)[C@H]2Cn3c(ccc(/C=C/c4ccccc4)c3=O)[C@@H]1N2Cc1ccccc1F
3. COC(=O)[C@H]1[C@H](CO)[C@H]2Cn3c(ccc(-c4ccccc4OC)c3=O)[C@@H]1N2Cc1ccccc1
4. COc1ccc2nc(-c3ccc(CN4CCC(n5c(=O)[nH]c6cc(Cl)ccc65)CC4)cc3)c(-c3ccccc3)nc2c1
assay / entry	1	2	3	4
HIV Env fusion	-4[16.7 µM]	4[16.7 µM]	19[16.7 µM]	-22
Yeast UUG start	nt	nt	nt	nt
CSC inhib	nt	nt	nt	nt
MT1-MMP act inh	nt	nt	nt	nt
MT1-MMP act inh RFP	nt	nt	nt	nt

# Results, repeating the preview:
1. CC[C@H]1C=C(C(=O)N[C@@]2(C(=O)O)C[C@H]2CC)[C@H]2CCC(=O)[C@H]2C1
2. COC(=O)[C@H]1[C@H](CO)[C@H]2Cn3c(ccc(/C=C/c4ccccc4)c3=O)[C@@H]1N2Cc1ccccc1F
3. COC(=O)[C@H]1[C@H](CO)[C@H]2Cn3c(ccc(-c4ccccc4OC)c3=O)[C@@H]1N2Cc1ccccc1
4. COc1ccc2nc(-c3ccc(CN4CCC(n5c(=O)[nH]c6cc(Cl)ccc65)CC4)cc3)c(-c3ccccc3)nc2c1
5. Cc1cc(N2CCNC[C@H]2C)ccc1N1CCN[C@@H](C)C1
6. CC(=O)NCC1=C(c2ccc(S(C)(=O)=O)cc2)C[C@@H]2CC[C@H]1N2CCOc1ccccc1
7. CCC1(NS(=O)(=O)c2ccc(N)cc2)C(=O)N(C)C(=O)N(C)C1=O
8. COc1ccc2nc3c(C)n(C)ccc-3c2c1
assay / entry	1	2	3	4	5	6	7	8
HIV Env fusion	-4[16.7 µM]	4[16.7 µM]	19[16.7 µM]	-22	7	-13	nt	nt
Yeast UUG start	nt	nt	nt	nt	nt	nt	nt	nt
CSC inhib	nt	nt	nt	nt	nt	nt	nt	nt
MT1-MMP act inh	nt	nt	nt	nt	nt	nt	-1	-14
MT1-MMP act inh RFP	nt	nt	nt	nt	nt	nt	4	3

9. CSc1cccc(NP2(=O)OCC(C)([N+](=O)[O-])CO2)c1 (stereo not drawn)
10. Cc1nc2cc(OC(=O)N(C)Cc3cccc(-c4ccncc4)c3)ccc2s1
11. CCC1(CC)C(=O)NC(=O)N(CCc2ccccn2)C1=O
12. C=C1C(=O)OC2CC(C)C3C=CC(=O)C3(C)C(O)C12 (stereo not drawn)
13. C[C@]12CC[C@@H](O)CC1=CC(=O)C1C2CC[C@]2(C)C(=O)CCC12 (stereo partly drawn)
14. C[C@H]1CN([C@@H](C)CO)C(=O)CCCn2cc(nn2)CO[C@@H]1CN(C)C(=O)Oc1cccc2ccccc12
15. O=C(NC1CCCCC1)N1Cc2cc(N3CCOCC3)ccc2-n2nncc2C1
16. CCOC(=O)[C@@H]1[C@@H]2NC(=O)N[C@@]1(C)Oc1ccccc12
assay / entry	9	10	11	12	13	14	15	16
HIV Env fusion	nt	nt	nt	nt	nt	-15	-9	-1&-3[16.7 µM]
Yeast UUG start	nt	nt	nt	nt	nt	56	9	-3
CSC inhib	nt	nt	nt	nt	0	nt	nt	nt
MT1-MMP act inh	-3	-3	2	-11	2	nt	nt	nt
MT1-MMP act inh RFP	-3	-26	4	-28	1	nt	nt	nt

17. Cc1ncc2n1-c1ccc(Cl)cc1C(c1ccccc1F)=NC2
18. COc1ccc2c3c1OC1C(=O)CC[C@@]4(O)[C@@H](C2)N(CC2CC2)CC[C@]314 (stereo partly drawn)
19. O=C1CN=C(c2ccccc2)c2cc([N+](=O)[O-])ccc2N1
20. COc1cc(O)cc2c1cc([N+](=O)[O-])c1c(C(=O)O)cc3c(c12)OCO3
21. Oc1ccc(Cl)cc1Cc1ccccc1
22. CC(=O)C1CCC2C3CC(O)C4CC(O)CCC4(C)C3CCC12C (stereo not drawn)
23. CC(C)N=C(NC(C)C)N1CC1
24. CCN(CC)CC(=O)Nc1ccc(Cl)cc1C(=O)c1ccccc1
assay / entry	17	18	19	20	21	22	23	24
HIV Env fusion	nt	nt	nt	nt	nt	nt	nt	nt
Yeast UUG start	-15	0	-4	-12	-30	-31	-8	-14
CSC inhib	nt	nt	nt	nt	nt	nt	nt	nt
MT1-MMP act inh	2	-1	-3	-3	-1	0	2	1
MT1-MMP act inh RFP	4	2	4	4	1	2	1	2

# Along the list, from the results shown.
# MT1-MMP act inh RFP, entries 18 to 21 → 2, 4, 4, 1
# MT1-MMP act inh, entries 18 to 21 → -1, -3, -3, -1

# Remaining list, next part:
25. CCc1ccc(OCC(=O)N2CCN(CC(=O)Nc3ccccc3Cl)CC2)cc1
26. c1cc2c(cc1C1OCC3C(c4ccc5c(c4)OCO5)OCC13)OCO2 (stereo not drawn)
27. c1ccc(C2(N3CCCCC3)CCCCC2)cc1
28. COC(=O)C1=COC(C)C2CN3CCc4c([nH]c5cc(OC)ccc45)C3CC12 (stereo not drawn)
29. c1ccc(Nc2ccc3ccccc3c2)cc1
30. CCC1(CC)C(=O)NC(=O)N(c2ccccc2)C1=O
31. C[C@]12CC[C@H]3[C@@H](CCC4=CC(=O)CC[C@@H]43)[C@@H]1CC[C@@H]2O
32. CC1CN1c1cc2c(c3c1ccn3C)C1CCC2C1 (stereo not drawn)
assay / entry	25	26	27	28	29	30	31	32
HIV Env fusion	nt	nt	nt	nt	nt	nt	nt	nt
Yeast UUG start	6	-24	-4	35	-6	-22	-3	-21
CSC inhib	nt	nt	nt	nt	nt	nt	nt	nt
MT1-MMP act inh	8	0	1	-41	0	1	-2	1
MT1-MMP act inh RFP	-5	-10	10	15	2	3	2	3

33. COC(=O)c1ccc(NC(=O)NC(=O)Oc2ccccc2)cc1
34. COC(=O)C1=C(c2ccc(OCc3ccccc3)cc2)C[C@@H]2CC[C@H]1N2C(=O)NCc1ccc2c(c1)OCO2
35. C=CC[C@@H](CC/C=C/C=C/CC/C=C\[C@@H]1CSC([C@@H]2C[C@@H]2C)=N1)OC
36. O=C(NCC1=C(c2ccc3ccccc3c2)C[C@@H]2CC[C@H]1N2Cc1ccco1)c1cccs1
37. C=CC12CN(C)C3C4COC(CC41)C1(C(=O)Nc4ccccc41)C32 (stereo not drawn)
38. ClCCN1CCSCC1
39. C[C@]12CC[C@H](O)C[C@H]1CC[C@@H]1[C@@H]2CC[C@]2(C)C(=O)CC[C@@H]12
40. CC1C(=O)CC2(C(C)C)CC12 (stereo not drawn)
assay / entry	33	34	35	36	37	38	39	40
HIV Env fusion	nt	nt	nt	nt	nt	nt	nt	nt
Yeast UUG start	-2	-11	-14	-20	-1	-47	-13	-4
CSC inhib	nt	nt	nt	nt	nt	nt	nt	nt
MT1-MMP act inh	3	-5	13	-2	-1	-2	4	4
MT1-MMP act inh RFP	-2	-22	-1	-4	3	3	2	5

41. C[C@]12CC[C@@H](O)CC1=CCC1C2CC[C@@]2(C)C1C[C@@H](F)[C@H]2O (stereo partly drawn)
42. CCOC(=O)C1C(OC(=O)c2ccccc2)CC2CCC1N2C (stereo not drawn)
43. CN(C)c1ccc([N+](=O)[O-])c([N+](=O)[O-])c1
44. COc1ccc(-c2nn(Cc3ccccc3)cc2C(=O)NC2CC2)cc1OC
45. C[C@@H]1CN([C@H](C)CO)C(=O)CCCn2nncc2CO[C@@H]1CN(C)C(=O)Oc1ccc2ccccc2c1
46. CCOC(=O)c1cnc(N2CC2)nc1N
47. COC(=O)C1=C(c2ccc(OCc3ccccc3)cc2)C[C@@H]2CC[C@H]1N2C(=O)NCc1ccc(OC)cc1
48. CCOC(=O)[C@]12Cc3cc(C)ccc3[C@H]1N(CCC(=O)OC)C(=O)c1ccccc12
assay / entry	41	42	43	44	45	46	47	48
HIV Env fusion	nt	nt	nt	nt	nt	nt	nt	8
Yeast UUG start	0	1	-19	-6	-13&-1	-5	-1	nt
CSC inhib	nt	nt	nt	nt	nt	nt	nt	nt
MT1-MMP act inh	-2	0	8	3	6	2	12	-12
MT1-MMP act inh RFP	0	4	-5	1	7	4	-24	-26

# 3 entries out of the list, ordered by SMILES length, ascending.
44. COc1ccc(-c2nn(Cc3ccccc3)cc2C(=O)NC2CC2)cc1OC
48. CCOC(=O)[C@]12Cc3cc(C)ccc3[C@H]1N(CCC(=O)OC)C(=O)c1ccccc12
47. COC(=O)C1=C(c2ccc(OCc3ccccc3)cc2)C[C@@H]2CC[C@H]1N2C(=O)NCc1ccc(OC)cc1
assay / entry	44	48	47
HIV Env fusion	nt	8	nt
Yeast UUG start	-6	nt	-1
CSC inhib	nt	nt	nt
MT1-MMP act inh	3	-12	12
MT1-MMP act inh RFP	1	-26	-24

# Next compounds follow:
49. CC=C(C)C1(CCC)C(=O)NC(=S)NC1=O
50. CC12CCC(=O)C=C1CC(N1CC1)C1C2CCC2(C)C(O)CCC12 (stereo not drawn)
51. COc1ccccc1NP1(=O)OCC(C)([N+](=O)[O-])CO1 (stereo not drawn)
52. O=C1CC(=O)N(Cc2ccccc2)C(=O)N1Cc1ccccc1
53. COC(=O)C1=C(c2ccc(OCc3ccccc3)cc2)C[C@@H]2CC[C@H]1N2C(=O)NCCc1ccc(F)cc1
54. CCOC(=O)[C@]12Cc3cc(OC)ccc3[C@H]1N(C(C)C)C(=O)c1ccccc12
55. CN(c1ccccc1)P(=O)(N1CC1)N1CC1
56. C[C@H]1CCC/C=C/[C@@H]2C[C@H](O)C[C@H]2[C@@H](O)/C=C/C(=O)O1
assay / entry	49	50	51	52	53	54	55	56
HIV Env fusion	-1	-54	1	-9	0	17	23	82*
Yeast UUG start	nt	nt	nt	nt	nt	nt	nt	nt
CSC inhib	nt	nt	nt	nt	nt	nt	nt	nt
MT1-MMP act inh	4	-4	0	-21	-10	-16	-1	-4
MT1-MMP act inh RFP	4	0	2	4	-28	-26	2	-24

57. CCOC(=O)[C@]12Cc3cc(OC)ccc3[C@H]1N(CCC(=O)OC)C(=O)c1cc(OC)ccc12
58. COC(=O)C1=C(C)NC(=S)NC1c1ccc(N(CCCl)CCCl)cc1Cl (stereo not drawn)
59. CCOC(=O)[C@]12Cc3cc(Cl)ccc3[C@H]1N(C(C)C)C(=O)c1ccccc12
60. CC1CC(C)OP(=O)(OCCC#N)O1 (stereo not drawn)
61. CCC1([N+](=O)[O-])COP(=O)(NCc2cccnc2)OC1 (stereo not drawn)
62. Clc1cccc(NC2=NCCS2)c1
63. CC(C)C[C@H]1COc2cccc(N3CCN(C)CC3)c2S(=O)(=O)N1
64. COP(=S)(OC)SCn1nnc2ccccc2c1=O
assay / entry	57	58	59	60	61	62	63	64
HIV Env fusion	0	-23	-36	7	-8	5	-10	3
Yeast UUG start	nt	nt	nt	nt	nt	nt	nt	nt
CSC inhib	nt	nt	nt	nt	nt	nt	nt	nt
MT1-MMP act inh	-7	-2	-42	-5	4	3	-4	0
MT1-MMP act inh RFP	-10	-8	-32	-2	1	5	2	4

65. CC=CC(C)=CC(C)C(=O)CC(O)CC1CC(=O)NC(=O)C1 (stereo not drawn)
66. NC(Cc1ccc(Cl)cc1)c1csc(Nc2ncccn2)n1 (stereo not drawn)
67. CCOc1ccc(-c2cc(C(=O)N3CCC4(CC3)OCCO4)c3ccccc3n2)cc1
68. CC12CCC3C(CCC4CC(=O)CCC43C)C1CC(=NO)C2=O (stereo not drawn)
69. CCC1CN1P1(=O)OCC(C)([N+](=O)[O-])CO1 (stereo not drawn)
70. CC1=C(O)C(=O)C=C2C1=CC=C1C2(C)CCC2(C)C3CC(C)(C(=O)O)CCC3(C)CCC12C (stereo not drawn)
71. CCOC(=O)[C@]12Cc3cc(C)ccc3[C@H]1N(C1CCCCC1)C(=O)c1ccccc12
72. COC(=O)C1(F)C(=O)NC(=O)NC1O (stereo not drawn)
assay / entry	65	66	67	68	69	70	71	72
HIV Env fusion	24	-3	-157	-3	-10	-231	21	-25
Yeast UUG start	nt	nt	nt	nt	nt	nt	nt	nt
CSC inhib	nt	nt	nt	nt	nt	nt	nt	nt
MT1-MMP act inh	-18	-16	6	-2	-3	-21	-32	10
MT1-MMP act inh RFP	-5	-9	7	1	5	-32	-34	7
